GIV Gai3 FP = inhibitors of GIV peptide binding to Galpha-i3, primary screen, biochemical, fluorescence polarization, FITC-GIV GBA peptide, rat Galphai3 | Guanine nucleotide-binding protein G(i) subunit alpha-3 (Rattus norvegicus), P08753 | 90 min; stronger effect = lower value; scaled: aluminum fluoride 0%, vehicle 100% | percent of control (FP), % (no concentration beside the values) | 0.42% of 210,000 active | AID 1224905, 2016;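 active = replicate mean at 85% of control or lower, very high polarization wells dropped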;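 note: wells of about 15 µL received 100 nL stock; the first replicate is given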
Target sequence (P08753 whole entry, looked up): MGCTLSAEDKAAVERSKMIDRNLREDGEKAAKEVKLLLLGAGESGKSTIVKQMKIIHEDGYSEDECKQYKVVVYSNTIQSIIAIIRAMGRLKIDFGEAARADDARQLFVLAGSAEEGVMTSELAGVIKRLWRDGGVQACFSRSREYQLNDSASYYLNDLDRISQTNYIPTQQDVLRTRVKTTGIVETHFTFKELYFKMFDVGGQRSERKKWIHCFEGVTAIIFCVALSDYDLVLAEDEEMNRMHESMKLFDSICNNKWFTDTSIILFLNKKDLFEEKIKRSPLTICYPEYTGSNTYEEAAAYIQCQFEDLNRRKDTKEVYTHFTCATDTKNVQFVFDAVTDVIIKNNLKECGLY
Sa growth 42C = S. aureus growth inhibition at 42 and 30 °C, primary screen, LtaS inhibitor project, RN4220, two temperatures; relative growth, % (no concentration beside the values); 0.53% of 170,000 active; OD600, 20 h, 42 °C; stronger effect = lower value;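 active = growth at 42 °C up to 50% and 20 or more points under that at 30 °C, or under 10% at both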;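 note: 300 nL library stock went into each well; scaled to the means of positive and negative controls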
HCMV UL50-53 inh = inhibitors of HCMV UL50-UL53 interaction, biochemical, HTRF | inhibition, % (test concentration not listed) | normalized percent inhibition | 0.15% of 190,000 active | AID 1918969, 2023;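 active = both replicates at 50% or more, plus weaker picks with an unusually low signal ratio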;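 note: stock transfer was 100 nL into about 20 µL; 0% = negative control wells and 100% = wells with untagged competitor protein; inactives centre near -12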
Sa growth 42C second temp = second read-out of Sa growth 42C, no call of its own (marks repeat the call); relative growth, %; measured here: growth at 30 °C;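 optical density after 20 h as mean of two plates; 100% = untreated growth and lower means inhibition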
Active calls of the source: *; nt = no result given; & = joins results of further samples.

SMILES	GIV Gai3 FP	Sa growth 42C	Sa growth 42C second temp	HCMV UL50-53 inh
COc1cc(CNC(C)c2ccccc2)ccc1OCc1ccc2c(c1)n(C)c(=O)n2C (stereo not given)	99	nt	nt	-13
CCOC(=O)Nc1sccc1C(N)=O	110	106	101	-3
CCn1c(=NC(=O)c2ccc(N(C)C)cc2)sc2cc(C)ccc21	108	97	99	-1
O=C(CCCN1C(=O)c2ccccc2C1=O)Nc1ccc(S(=O)(=O)Nc2ncccn2)cc1	99	106	93	-15
CCn1cc2nc(SCc3cccc(C)c3)n(CCc3ccccc3)c(=O)c2n1	99	98	86	nt
CSc1ncccc1C(=O)Nc1ccccc1N1CCOCC1	nt	92	95	3
N/C(=N\OC(=O)c1csnn1)c1ccc(-c2csnn2)cc1	105	97	91	-15
CCOC(=O)c1c(N=Cc2ccccc2Cl)n[nH]c1C	104	107	86	-7
CC(=O)c1ccc(N2CCN(c3ccc4cc(S(=O)(=O)N5CCCCC5)ccc4n3)CC2)cc1	105	92	87	nt
O=C(NCCS(=O)(=O)N1CCN(c2ccccc2F)CC1)c1cc(=O)c2ccccc2o1	102	95	91	nt
Cc1nn(-c2ccccc2)cc1-c1noc(C(=O)NCc2ccc(Cl)cc2)n1	97	nt	nt	-34
Cc1cc([N+](=O)[O-])ccc1NC(=O)CC1SC(=Nc2ccccc2)N(c2ccccc2)C1=O (stereo not given)	103	nt	nt	-19
CCOC(=O)Cc1c(C)[nH]n(-c2ccccc2)c1=O	110	105	98	7
O=C(COC(=O)c1cccnc1Nc1cccc(C(F)(F)F)c1)NC1CCS(=O)(=O)C1 (stereo not given)	nt	77	86	-18
COc1ccc(OCc2ncc(C(=O)O)c(-c3ccncc3)n2)cc1	102	nt	nt	-34
O=C1C2C3C=CC(O3)C2C(=O)N1c1ccc(Cl)c(C(F)(F)F)c1 (stereo not given)	99	nt	nt	-8
COc1ccc(C(=O)N2CCC(c3nc(-c4ccc(S(=O)(=O)N5CCCC5)cc4)no3)CC2)cc1	105&98	101	86	-27&-4
N#C/C(=C\c1cn(-c2ccccc2)nc1-c1ccc2c(c1)OCCO2)C(=O)Nc1nccs1	nt	87	93	4
CN1CCC(=NNC(=O)CSCc2ccccc2)CC1	115	96	97	2
Cc1ncc(CO)c2cc(C(N)=S)c(=Nc3ccc(NC(=O)c4ccco4)cc3)oc12	104	87	79	-49
Cc1nc(-n2cccc2)sc1C(=O)NCc1ccc(F)cc1	102	82	84	-11
COc1ccc(N2CCN(C(=O)CN3CCSc4ccccc43)CC2)cc1	101	96	87	nt
Cn1c(C(C#N)(CC(=O)N2CCCC2)CC(=O)N2CCCC2)nc2ccccc21	nt	72	86	-26
CS(=O)(=O)c1ccc(C(=O)Nc2nccs2)cc1	105	91	79	-12

7 entries already listed, arranged by heavy-atom count, falling:
SMILES	GIV Gai3 FP	Sa growth 42C	Sa growth 42C second temp	HCMV UL50-53 inh
COc1ccc(C(=O)N2CCC(c3nc(-c4ccc(S(=O)(=O)N5CCCC5)cc4)no3)CC2)cc1	105&98	101	86	-27&-4
N#C/C(=C\c1cn(-c2ccccc2)nc1-c1ccc2c(c1)OCCO2)C(=O)Nc1nccs1	nt	87	93	4
O=C(COC(=O)c1cccnc1Nc1cccc(C(F)(F)F)c1)NC1CCS(=O)(=O)C1 (stereo not given)	nt	77	86	-18
O=C1C2C3C=CC(O3)C2C(=O)N1c1ccc(Cl)c(C(F)(F)F)c1 (stereo not given)	99	nt	nt	-8
CN1CCC(=NNC(=O)CSCc2ccccc2)CC1	115	96	97	2
CCOC(=O)Cc1c(C)[nH]n(-c2ccccc2)c1=O	110	105	98	7
CS(=O)(=O)c1ccc(C(=O)Nc2nccs2)cc1	105	91	79	-12

(further entries)
SMILES	GIV Gai3 FP	Sa growth 42C	Sa growth 42C second temp	HCMV UL50-53 inh
COCC(=O)N1CCCc2ccccc21	102	96	93	-10
O=C(CSc1ncnc2c1sc1cccc(F)c12)NC1CCN(Cc2ccccc2)CC1	142	nt	nt	-29
CCC1(C)OC(=O)N2CCc3ccccc3C21C (stereo not given)	nt	93	87	-10
CSc1nn(-c2ccccc2)c[n+]1-c1ccccc1	104	115	93	0
Cc1cc(C)nc(SCC(=O)Nc2ccc(F)c(Cl)c2)n1	102	94	74	-7
CSc1nc2n(n1)C(C(C)C)C(C(=O)Nc1ccc(Cl)cc1)=C(C)N2 (stereo not given)	107	112	102	11
Cc1ccc(C)c(NC(=O)CSc2nnc(NC(=O)Nc3ccccc3)s2)c1	95	101	87	nt
CCOC(=O)N1CCC(NC(=O)/C=C/C(=O)O)CC1	111	100	102	-11
Cc1nc(N=Nc2cc(S(=O)(=O)O)c3cc([N+](=O)[O-])cc(S(=O)(=O)O)c3c2)c(COP(=O)(O)O)c(C=O)c1O	17*	nt	nt	34
COc1ccc(OC)c(C2NC(=O)NC(C)=C2C(=O)OCCSc2ccccc2)c1Br (stereo not given)	105	nt	nt	-5
COc1ccc(-c2nnn(CN3CCCC3c3cccs3)n2)cc1OC (stereo not given)	nt	69	93	-45
O=C(O)c1c(CNCc2cccc(F)c2)c2ccccc2n1Cc1ccccc1	103	104	93	nt
O=C(c1ccc(CN2CCOCC2)o1)C(F)(F)F	98	92	79	-10
COc1ccc(C2CC(=O)C3=C(C2)NC(=O)CC3c2ccccc2)cc1OC (stereo not given)	105	111	88	5
Cc1cccc(Nc2nc3ccccc3c3nncn23)c1	101	98	74	-28
Cc1cc(C(C)(C)C)cc(C)c1CC1=NCCN1	102	101	97	-28&-4&-12&-21&-12
CN(C)c1ccc(NC(=O)C2(c3cccs3)CCOCC2)cc1	101	102	100	nt
Cc1cc2ccc(=O)oc2cc1OC[C@@H](O)C(C)(C)O	nt	79	91	-55
Cc1ccc(CSCC(=O)N2CCN(c3ccccc3F)CC2)cc1	98	94	92	nt
CS(=O)(=O)CC[C@@H](C(=O)NCCc1ccccc1)N1Cc2ccccc2C1=O	105	95	90	-28
CN(C)CC1COc2ccccc2C1=O (stereo not given)	102	-0.4*	-0.7*	-18
CCn1cnc2c(=O)oc3ccccc3c21	103&101	99	82	-22&-13
Cc1noc(C(=O)N(C)c2ccccc2)c1Cl	105	104	94	nt
CCOC(=O)c1cnc(SCC(=O)Nc2ccccc2C)nc1N	104	nt	nt	-26
O=C1c2ccccc2C(=O)N1CC#Cc1ccccc1	97	103	107	4
Cc1cccc(-n2c(SCC(=O)Nc3ccccc3)nc3nc4c(cc3c2=O)COC(C)(C)C4)c1	99	89	80	-4
COc1ccc(NC(=O)CN2N=NC3C(=O)N(c4ccc(C)cc4)C(=O)C32)c(OC)c1 (stereo not given)	104	nt	nt	-3
CCOC(=O)CNC(=O)N1CCN(c2nnc(C)c3c(C)n(-c4ccc(Cl)cc4)nc23)CC1	102	93	88	nt
CC(=O)NCc1cn2ccsc2n1	nt	94	101	4
CCn1c(CN2CCN(c3cccc(Cl)c3)CC2)nc2c1c(=O)[nH]c(=O)n2C	105	97	85	-11
O=C(CSc1nnc2n1CCCCC2)N(c1ccccc1)C1CCCCC1	nt	91	92	-9
CCOC(=O)C(C)n1nc(C)c2c(C)n(-c3ccccc3)nc2c1=O (stereo not given)	104	100	90	-7
Cc1ccc2nc(-c3ccc(Cl)c(NC(=O)c4cccc([N+](=O)[O-])c4C)c3)oc2c1	113	102	106	-16
CC(C)CN(CC(C)C)C(=O)C1CCCCC1C(=O)O (stereo not given)	105	85	102	26
CC(=O)N1CCCc2cc(S(=O)(=O)N3CCCC(C(=O)NCc4ccccc4Cl)C3)ccc21 (stereo not given)	101	98	80	nt
Cc1cc(C)c(NC(=O)CSc2nncn3c2cc2oc(C)cc23)c(C)c1	107	131	89	nt

Taken from above.
Reading for `Cc1ccc2nc(-c3ccc(Cl)c(NC(=O)c4cccc([N+](=O)[O-])c4C)c3)oc2c1` in GIV Gai3 FP: 113
Reading for `O=C(CSc1nnc2n1CCCCC2)N(c1ccccc1)C1CCCCC1` in HCMV UL50-53 inh: -9
Reading for `CCOC(=O)C(C)n1nc(C)c2c(C)n(-c3ccccc3)nc2c1=O` (stereo not given) in GIV Gai3 FP: 104
Reading for `CC(=O)N1CCCc2cc(S(=O)(=O)N3CCCC(C(=O)NCc4ccccc4Cl)C3)ccc21` (stereo not given) in Sa growth 42C second temp: 80
Reading for `Cc1cc(C)c(NC(=O)CSc2nncn3c2cc2oc(C)cc23)c(C)c1` in Sa growth 42C second temp: 89

More compounds
SMILES	GIV Gai3 FP	Sa growth 42C	Sa growth 42C second temp	HCMV UL50-53 inh
O=C(Nc1cccnc1)c1cccc(C(F)(F)F)c1	99	108	76	-13
CCOCCCNC(=O)N1CCN(S(=O)(=O)c2ccc3c(ccn3C)c2)CC1	105	106	102	nt
CSc1cccc(NC(=O)Cn2nc(C)c3sc4ccccc4c3c2=O)c1	106	120	87	-6
CC1CN(S(=O)(=O)c2cccc(C(=O)NCCO)c2)CC(C)O1 (stereo not given)	nt	95	96	4
CCC(C)n1c(SCC(=O)NC2CCS(=O)(=O)C2)nc2ccccc2c1=O (stereo not given)	nt	108	86	7
N#Cc1ccccc1OC1CCOC1=O (stereo not given)	nt	97	96	-27
CCCCC1CCC(C(=O)ON2C(=O)c3cccc4cccc(c34)C2=O)CC1 (stereo not given)	98	89	79	nt
COC(=O)c1ccc(/N=C/N(C)C)o1	100	99	88	-37
CSc1ncc(Cl)c(C(=O)N(Cc2ccc(C(C)C)cc2)C2CCS(=O)(=O)C2)n1 (stereo not given)	100	107	83	-11
Cc1nc(N2CCOCC2)cc(N2CCN(C(=O)Nc3ccc(Cl)cc3)CC2)n1	97	nt	nt	-10
COc1ccc(NCc2cc3cc4c(cc3n(CC(=O)Nc3ccc(F)cc3)c2=O)OCCO4)cc1	102	87	81	nt
COc1ccc2c(Cl)c(C(=O)NN=C3CCN(C)CC3)sc2c1	nt	66	84	-54

Shown as a markdown table: 2 of the compounds above.
| Molecule | GIV Gai3 FP | Sa growth 42C | Sa growth 42C second temp | HCMV UL50-53 inh |
| --- | --- | --- | --- | --- |
| CCOCCCNC(=O)N1CCN(S(=O)(=O)c2ccc3c(ccn3C)c2)CC1 | 105 | 106 | 102 | nt |
| COc1ccc(NCc2cc3cc4c(cc3n(CC(=O)Nc3ccc(F)cc3)c2=O)OCCO4)cc1 | 102 | 87 | 81 | nt |

(more compounds)
SMILES	GIV Gai3 FP	Sa growth 42C	Sa growth 42C second temp	HCMV UL50-53 inh
COc1ccc(/C=C2N=C(/C=C/c3ccc(C)cc3)OC\2=O)cc1OC(C)=O	169	126	91	nt
c1ccc(Nc2c(-c3ccsc3)nc3cnccn23)cc1	107	98	86	-10
COc1ccc(-c2cc(C(=O)NCC(=O)O)c(C)o2)cc1OC	109	129	90	-8
COCCn1c(SC(C)C(=O)c2ccc(C)c(C)c2)nc2cc(C(=O)NC(C)C)ccc2c1=O (stereo not given)	101	nt	nt	0
O=C(CC(NS(=O)(=O)c1ccc(Br)cc1)c1ccco1)NC1CC1 (stereo not given)	101	92	85	nt
CC(=O)N1CCc2cc(CNC(=O)c3ccccc3Br)ccc21	109	131	89	nt
Cc1nonc1NCc1ccc(N(C)C)cc1	104	113	78	-14
CC(C)C(=O)Nc1cscc1S(=O)(=O)c1ccc(Cl)cc1	97	104	83	-14
CCc1cccc(C)c1NC(=O)CCCN1C(=O)C(c2ccccc2)Oc2cccnc21 (stereo not given)	102	113	98	nt
CCn1cc(S(=O)(=O)Nc2cc(C)on2)cn1	95	91	100	-10
COc1ccc(CNC(=O)c2cnc3sc4cc(OC)ccc4n3c2=O)cc1	99	104	97	2
CCOc1ccc(-c2cc(C(=O)NCCc3ccc(OC)c(OC)c3)[nH]n2)cc1	106	98	98	nt
CC(C)c1cnc2c(c1SCC(=O)Nc1cccc(F)c1)c(=O)n(C)c(=O)n2C	103	80	84	nt

Screening data: PubChem BioAssay, ICCB-Longwood Screening Facility, Harvard Medical School
